Rango dissoc inh – qHTS Assay for Inhibitors of RanGTP induced Rango (Ran-regulated importin-beta cargo) - Importin beta complex dissociation. Biochemical FRET Rango-importin beta, RanGTP-induced dissociation. AID 540253, 2011. 340,000 compounds, 0.071% hits. Potency, µM (top dose mostly 46.1 µM), without a hit: at the highest dose activity change, negative = inhibition. Snurportin-1 (Homo sapiens) + GTP-binding nuclear protein Ran (Homo sapiens) + Importin …; active means falling FRET ratio curve, often poorly fitted, with flat reads before Ran was added; inconclusive means other falling curves, or compound fluorescence or quenching; inactive means flat or rising ratio curve;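 also: potency is read from the fitted curve at half-maximal effect; % of control where 0% means no effect; nearly all actives have a fitted effect of over 45% in size; -100% = wells without RanGTP and RCC1; the record marks most hits as doubtful in a second field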
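Rango (0.1 uM)–importin beta (0.25 uM) complex; RanGTP-RCC1 trigger; 45 min RT; CFP/YFP FRET read.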
Rango-impB inh – qHTS Assay for Inhibitors of Rango (Ran-regulated importin-beta cargo) - Importin beta complex formation; Importin subunit beta-1 (Homo sapiens), Q14974; Rango CFP/YFP FRET sensor + importin beta, 45 min; Potency, µM (top dose mostly 92.2 µM), for the others: at the highest dose inhibition of complex formation; 340,000 compounds, 0.031% hits; AID 540263, 2011; active = rising FRET ratio curve, often small or poorly fitted; inconclusive = mostly compound fluorescence or quenching in the first reads; inactive = flat curves in all reads;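 also: potency is read from the fitted curve at half-maximal effect; 0% = DMSO wells and 100% = buffer wells lacking importin beta; nearly all actives have a fitted effect of over 15% in size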
Target sequence (Q14974 whole entry, looked up): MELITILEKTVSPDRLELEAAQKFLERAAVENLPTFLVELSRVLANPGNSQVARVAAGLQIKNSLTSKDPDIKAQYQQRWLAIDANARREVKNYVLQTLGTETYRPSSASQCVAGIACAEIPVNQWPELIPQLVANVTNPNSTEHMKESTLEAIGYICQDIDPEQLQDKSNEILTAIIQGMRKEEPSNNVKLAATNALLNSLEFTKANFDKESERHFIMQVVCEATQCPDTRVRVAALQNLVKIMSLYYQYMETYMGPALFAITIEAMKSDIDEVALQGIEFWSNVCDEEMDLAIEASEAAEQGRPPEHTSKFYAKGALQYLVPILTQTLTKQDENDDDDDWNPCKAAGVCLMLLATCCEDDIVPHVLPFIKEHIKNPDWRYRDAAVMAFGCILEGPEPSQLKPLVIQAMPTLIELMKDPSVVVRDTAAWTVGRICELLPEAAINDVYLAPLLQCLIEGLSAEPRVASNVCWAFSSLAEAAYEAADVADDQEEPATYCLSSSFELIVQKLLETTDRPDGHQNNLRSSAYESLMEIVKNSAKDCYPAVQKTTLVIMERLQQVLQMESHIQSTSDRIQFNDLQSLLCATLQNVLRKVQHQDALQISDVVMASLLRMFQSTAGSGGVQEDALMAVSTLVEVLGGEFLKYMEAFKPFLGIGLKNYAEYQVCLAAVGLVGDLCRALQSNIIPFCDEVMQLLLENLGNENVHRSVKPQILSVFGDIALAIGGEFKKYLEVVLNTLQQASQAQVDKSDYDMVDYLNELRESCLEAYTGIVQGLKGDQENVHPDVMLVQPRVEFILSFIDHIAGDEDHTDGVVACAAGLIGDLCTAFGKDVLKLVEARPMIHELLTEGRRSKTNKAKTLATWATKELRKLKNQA
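FRET biosensor Rango (snurportin 1 IBB between N-terminal EYFP and C-terminal Cerulean), 50 nM in PBS/1 mM DTT/0.02% Tween-20/0.1% BSA, preincubated 5 min RT with compound; 0.125 microM importin beta added, 45 min RT, CFP/YFP FRET ratio read.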
GLA inh pH 4.5 – qHTS Assay for Inhibitors of Human alpha-Galactosidase at pH 4.5 | purified enzyme, 4-MU-alpha-Gal fluorescence, pH 4.5 | 230,000 tested, under 10 active | activity change, negative = inhibition, % at 105 µM | Alpha-galactosidase A (Homo sapiens), P06280; inconclusive = small, poorly fitted or top-dose-only inhibition, or a rising curve; inactive = flat fitted curve, though single readings scatter; no compound was filed as active;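 also: 0% = full activity with enzyme and -100% = basal without enzyme; dose as in the result columns while the protocol names 77 µM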
miR-21 reporter – qHTS Assay for Modulators of miRNAs and/orActivators of miR-21; HeLa miR-21 FLuc reporter, luciferase, 48 h; Potency, µM (series often up to 38.3 µM), inactives show at the top dose reporter change, positive = more light; 340,000 tested, under 10 active; AID 2288, 2010; active = well fitted rising curve with a large enough effect; inconclusive = small, poorly fitted or top-dose-only effect; inactive = no such curve, though single readings can be large or run the other way;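 also: % of control where 0% means no effect; miR-21 action dims this reporter so a rising signal means less miR-21 action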
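HeLa cells endogenously expressing miR-21, stably carrying CMV-driven firefly luciferase with a downstream miR-21 binding site, 2000 cells/well. Titrations up to approximately 40 uM, 48 hours; luciferase luminescence read.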
The depositor's hits bear a star; & = joins results of further samples. Only part of the results is shown; count on the stated rates, not on these rows.

How did COc1cc(OC)c(S(=O)(=O)N2CCN(C(=O)c3ccccc3F)CC2)cc1NC(C)=O do in these assays?
Rango dissoc inh: 9%; Rango-impB inh: 3.9%; GLA inh pH 4.5: 5; miR-21 reporter: -2%

Results for CC(C)CCCC(C)NC(=O)c1cc(S(=O)(=O)N2CCCCC2)ccc1N1CCOCC1 (stereo not given) ?
Rango dissoc inh: 10%; Rango-impB inh: 0.6%

What do the screens show for `COc1c2n(C)ccc3c-2n(c(=O)c1=O)c1ccccc31`?
Rango dissoc inh: 1%; Rango-impB inh: -2.4%

What do the screens show for `C=CC(=O)Nc1ccc(Br)cc1`?
Rango dissoc inh: 16%; Rango-impB inh: -0.3%; GLA inh pH 4.5: 6; miR-21 reporter: 9%

What do the screens show for `COC(=O)c1ccc(C2Nc3cccc4cccc(c34)N2)cc1`?
Rango dissoc inh: 7%; Rango-impB inh: -6.4%; GLA inh pH 4.5: -18; miR-21 reporter: 2%

How did Cc1ccc2ncnc(NCCCCCC(=O)O)c2c1 do in these assays?
Rango dissoc inh: -23%; Rango-impB inh: -0.7%; miR-21 reporter: 5%

How did COC(=O)c1ccc(C23CC4(C2)[C@H](CN(Cc2ccc(-c5ccccc5)cc2)[C@@H]4c2ccccc2)C3c2ccc(C(F)(F)F)cc2)cc1 (stereo not given in full) do in these assays?
Rango dissoc inh: -8%; Rango-impB inh: -1.5%; GLA inh pH 4.5: 3&-3; miR-21 reporter: -7%

How did COCCn1c(SCC(=O)NCc2ccc3c(c2)OCO3)nnc1-c1c[nH]c2ccccc12 do in these assays?
Rango dissoc inh: -14%; Rango-impB inh: -2.7%; GLA inh pH 4.5: 8; miR-21 reporter: -1%

How did CC(=O)c1c(C)[nH]c(C(=O)Nc2cccnc2)c1C do in these assays?
Rango dissoc inh: -13%; Rango-impB inh: -5.3%; GLA inh pH 4.5: 5; miR-21 reporter: -2%

What do the screens show for `Cc1nn(C)c(C)c1S(=O)(=O)N1CCC(C(=O)NCC2COc3ccccc3O2)CC1` (stereo not given)?
Rango dissoc inh: -5%; Rango-impB inh: 2.3%; GLA inh pH 4.5: -8; miR-21 reporter: -1%

Results for COCCn1nnnc1C(c1ccc(OC)cc1)N1CCN(c2ccccc2F)CC1 (stereo not given) ?
Rango dissoc inh: -3%; Rango-impB inh: 1.7%; GLA inh pH 4.5: -2; miR-21 reporter: -14%

What do the screens show for `Cc1c(OC(C)C(=O)NC2CC(C)(C)NC(C)(C)C2)ccc2c3c(c(=O)oc12)CCC3` (stereo not given)?
Rango dissoc inh: -16%; Rango-impB inh: 0.9%; miR-21 reporter: 0%

How did Cc1cccc(NC(=S)N(C)C)c1C do in these assays?
Rango dissoc inh: 0%; Rango-impB inh: 0.0%; GLA inh pH 4.5: -20; miR-21 reporter: 2%

Results for O=[N+]([O-])c1ccc(S(=O)(=O)N/N=C/c2ccco2)cc1 ?
Rango dissoc inh: -3%; Rango-impB inh: 1.6%; GLA inh pH 4.5: 3; miR-21 reporter: 3%

How did CCCC(=O)Nc1c2c(nn1-c1cccc(C)c1C)CS(=O)(=O)C2 do in these assays?
Rango dissoc inh: -10%; Rango-impB inh: -2.2%; miR-21 reporter: -1%

Results for CCCCn1c(N)c(N(CC(C)C)C(=O)c2ccc(S(=O)(=O)N(CC)c3ccccc3)cc2)c(=O)[nH]c1=O ?
Rango dissoc inh: -5%; Rango-impB inh: -4.3%

Results for CN(C)C(=O)CC12CC3CC(C1)CC(CC(=O)N(C)C)(C3)C2 ?
Rango dissoc inh: -9%; Rango-impB inh: -3.1%; GLA inh pH 4.5: -14; miR-21 reporter: 1%

Results for COc1cc(-c2ccc(Nc3ccccc3C(=O)O)c(OC)c2)ccc1Nc1ccccc1C(=O)O ?
Rango dissoc inh: -3%; Rango-impB inh: -5.6%; GLA inh pH 4.5: -2; miR-21 reporter: 20%

Results for CCOc1cc(N2CCOCC2)c(OCC)cc1NC(=O)c1ccc(C)s1 ?
Rango dissoc inh: 0%; Rango-impB inh: 2.7%; GLA inh pH 4.5: 4; miR-21 reporter: 0%

Results for CCn1c(=O)n(CC)c2cc(N)ccc21 ?
Rango dissoc inh: inconclusive; Rango-impB inh: inconclusive; GLA inh pH 4.5: -1; miR-21 reporter: -10%

What do the screens show for `Cc1cc(C(=O)N2CCCC(N3CCN(c4cccc(C(F)(F)F)c4)CC3)C2)no1` (stereo not given)?
Rango dissoc inh: 5%; Rango-impB inh: -2.9%; miR-21 reporter: 11%

Results for Cn1nc(C(=O)Nc2cc(Cl)ccc2N2CCCC2)c2ccccc2c1=O ?
Rango dissoc inh: 2%; Rango-impB inh: -1.5%

How did Cc1nc(SCc2ccc(Cl)c(Cl)c2)ncc1C(=O)O do in these assays?
Rango dissoc inh: 0%; Rango-impB inh: 6.0%; GLA inh pH 4.5: -3; miR-21 reporter: -13%

What do the screens show for `Cc1nn2c(=O)cc(CSCC(=O)Nc3ccccc3Cl)nc2s1`?
Rango dissoc inh: 2%; Rango-impB inh: -3.0%; miR-21 reporter: -1%

Results for O=C(NCCc1ccccn1)c1ccc(COc2ccccc2)o1 ?
Rango dissoc inh: -13%; Rango-impB inh: 4.9%; GLA inh pH 4.5: 2; miR-21 reporter: -29%

What do the screens show for `COc1ccc(C=O)c(OC)c1`?
Rango dissoc inh: -17%; Rango-impB inh: inconclusive; miR-21 reporter: 1%

How did COc1ccc(CN2CCCC(C(=O)c3ccc4c(c3)OCO4)C2)c(F)c1 (stereo not given) do in these assays?
Rango dissoc inh: 0%; Rango-impB inh: -3.6%; miR-21 reporter: -1%

What do the screens show for `COC(=O)C1C(c2ccccc2)C(C(=O)O)C1c1ccccc1` (stereo not given)?
Rango dissoc inh: 1%; Rango-impB inh: -4.8%; GLA inh pH 4.5: 3; miR-21 reporter: -1%

How did Cc1nnc(SCC(=O)Nc2cccnc2Cl)s1 do in these assays?
Rango dissoc inh: -6%; Rango-impB inh: 2.3%

What do the screens show for `CN=C(c1ccc([N+](=O)[O-])cc1)N1CCCCC1`?
Rango dissoc inh: -16%; Rango-impB inh: 2.8%; GLA inh pH 4.5: -2; miR-21 reporter: 1%

How did COc1ccccc1-n1c(=S)[nH]c2c(sc(=S)n2-c2ccccc2C)c1=O do in these assays?
Rango dissoc inh: 19%; Rango-impB inh: 1.5%; GLA inh pH 4.5: -5; miR-21 reporter: -2%

Results for CCOC(=O)c1[nH]c2cc(OC)c(OC)cc2c1NC(=O)CN(C)C1CCCCC1 ?
Rango dissoc inh: -5%; Rango-impB inh: -1.6%; GLA inh pH 4.5: -12; miR-21 reporter: -10%

How did CCCc1nnc(NC(=O)CCC(=O)N2CCCCC2)s1 do in these assays?
Rango dissoc inh: 23%; Rango-impB inh: 0.4%; miR-21 reporter: -1%

Results for CCC(C)[C@H](NC(=O)N1CC(=O)Nc2ccccc21)C(=O)Nc1nccs1 (stereo not given in full) ?
Rango dissoc inh: 0%; Rango-impB inh: 3.2%; miR-21 reporter: 0%

What do the screens show for `CCCCCc1ccc(-c2cn(CN3C(=O)c4ccccc4C3=O)nn2)cc1`?
Rango dissoc inh: 11%; Rango-impB inh: -0.8%; miR-21 reporter: -3%

Results for CC(C)CC(c1nnnn1CC1CCCO1)N1CCN(c2nc3ccccc3s2)CC1 (stereo not given) ?
Rango dissoc inh: inconclusive; Rango-impB inh: -1.3%; GLA inh pH 4.5: 3; miR-21 reporter: 1%

Results for Cc1oc2c(C)c3oc(=O)c(CCC(=O)NCCCN4CCOCC4)c(C)c3cc2c1C ?
Rango dissoc inh: -4%; Rango-impB inh: 0.1%; miR-21 reporter: -9%

Results for CCO/C=C1/C(=O)N(c2ccc(OC)cc2)C(=O)c2ccccc21 ?
Rango dissoc inh: inconclusive; Rango-impB inh: inconclusive; GLA inh pH 4.5: 4; miR-21 reporter: 1%

Results for C/C(Cn1cnc([N+](=O)[O-])n1)=N\NC(=O)c1cccc(F)c1 ?
Rango dissoc inh: -3%; Rango-impB inh: -1.9%; GLA inh pH 4.5: 2; miR-21 reporter: -26%

What do the screens show for `NS(=O)(=O)c1cccc(C(=O)OCC(=O)NC2CCCc3ccccc32)c1` (stereo not given)?
Rango dissoc inh: -11%; Rango-impB inh: -0.4%

The list goes on; the last 2 above are carried over.
Results for C/C(Cn1cnc([N+](=O)[O-])n1)=N\NC(=O)c1cccc(F)c1 ?
Rango dissoc inh: -3%; Rango-impB inh: -1.9%; GLA inh pH 4.5: 2; miR-21 reporter: -26%

What do the screens show for `NS(=O)(=O)c1cccc(C(=O)OCC(=O)NC2CCCc3ccccc32)c1` (stereo not given)?
Rango dissoc inh: -11%; Rango-impB inh: -0.4%

How did COc1cccc([C@H](O)Cn2cc(-c3ccc(CON=C(C)C)cc3)nn2)c1 do in these assays?
GLA inh pH 4.5: -1; miR-21 reporter: -1%

How did Cc1ccc(C(=O)Nc2ccc3c(c2)CCC3)cc1S(=O)(=O)N1CCOCC1 do in these assays?
Rango dissoc inh: -10%; Rango-impB inh: 0.4%; GLA inh pH 4.5: -2; miR-21 reporter: -26%

Results for Cc1cccc(C(=O)NCCN2CCN(c3ccccc3)CC2)c1 ?
Rango dissoc inh: 19%; Rango-impB inh: 1.6%; GLA inh pH 4.5: 5; miR-21 reporter: -1%

What do the screens show for `COC(C(=O)Nc1c(F)cccc1F)c1ccccc1` (stereo not given)?
Rango dissoc inh: 0%; Rango-impB inh: -0.4%; GLA inh pH 4.5: 5; miR-21 reporter: -1%

Results for Cc1ccccc1N1CCN(C2CCCN(C(=O)c3csc(C(C)C)n3)C2)CC1 (stereo not given) ?
Rango dissoc inh: inconclusive; Rango-impB inh: 0.3%; miR-21 reporter: 21%

What do the screens show for `O=C(Oc1ccccc1)n1c(=S)oc2ccccc21`?
Rango dissoc inh: -6%; Rango-impB inh: -2.8%; GLA inh pH 4.5: 3; miR-21 reporter: -1%

Results for COc1ccc(NS(=O)(=O)c2cccc(C(=O)OCC(=O)NC3CC3)c2)cc1 ?
Rango dissoc inh: 27%; Rango-impB inh: 6.3%; miR-21 reporter: 3%

Results for Cc1c(CCC(=O)NCCCn2ccnc2)c(=O)oc2c(C)c3oc4c(c3cc12)CCCC4 ?
Rango dissoc inh: -23%; Rango-impB inh: 1.5%; miR-21 reporter: 6%

Results for O=C(CSc1nc2ccccc2o1)NCc1ccco1 ?
Rango dissoc inh: 11%; Rango-impB inh: 1.8%; GLA inh pH 4.5: 5; miR-21 reporter: -2%

Results for CNC(=O)C1CCN(S(=O)(=O)c2c(C)noc2/C=C/N(C)C)CC1 ?
Rango dissoc inh: 6%; Rango-impB inh: 5.0%; miR-21 reporter: 0%

Results for CC(C)Oc1ccc(C2CC(=O)N(c3cccc(/C=C/C(=O)O)c3)C2=O)cc1 (stereo not given) ?
Rango dissoc inh: -11%; Rango-impB inh: 1.9%; miR-21 reporter: 1%

How did CCCCC1CCC(C(=O)NCc2ccc3c(c2)OCO3)CC1 (stereo not given) do in these assays?
Rango dissoc inh: -6%; Rango-impB inh: 4.0%; GLA inh pH 4.5: 2; miR-21 reporter: -3%

How did Cc1c(/C=N/NC(=O)C(NC(=O)c2ccc3c(c2)OCO3)C(C)C)c2ccccc2n1C (stereo not given) do in these assays?
Rango dissoc inh: 3%; Rango-impB inh: 0.4%; GLA inh pH 4.5: -17; miR-21 reporter: 8%

How did CC(C)(SC(=S)N1CCCCCC1)C(=O)O do in these assays?
Rango dissoc inh: -6%; Rango-impB inh: 4.2%; GLA inh pH 4.5: 6; miR-21 reporter: 1%

How did O=C1OC(c2ccc(Cl)cc2)=N/C1=C\c1cccnc1 do in these assays?
Rango dissoc inh: -4%; Rango-impB inh: -0.2%; GLA inh pH 4.5: -3; miR-21 reporter: -8%

Results for CCOc1cc(NC(=S)NCCCN2CCOCC2)c(OCC)cc1NC(=O)c1ccc(C)cc1 ?
Rango dissoc inh: -1%; Rango-impB inh: -4.4%; GLA inh pH 4.5: 4; miR-21 reporter: 0%
